S aureus helic: S. aureus DNA helicase inhibition. inhibition, %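 (tested at about 80 µM)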. 120,000 compounds, 0.05% hits. purified S. aureus helicase, fluorescence unwinding assay; about half of the hits fall short of the stated cut. AID 485395;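 active means both duplicates at 50% or more, or one of them with a favoured structure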;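 further: 0% = mean of negative control wells and 100% = mean of positive control wells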
MgrA DNA FP: modulators of Staphylococcus aureus MgrA DNA binding; 84,000 compounds, 0.13% hits; inhibition, %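 (about 10 µg/mL by stock and volumes)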; fluorescence polarization;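 active means above 50% in either of two replicates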;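 further: 0% = protein plus DNA without compound and 100% = DNA alone without protein; higher means less MgrA bound to DNA so lower polarization; one replicate is shown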
* = called active by the depositor; . = not tested or not shown; & = joins results of further samples. An excerpt; count on the stated rates, not on these rows.

S aureus helic	MgrA DNA FP	SMILES
-8	-1.1	CC1CCN(C(c2ccccc2)c2nnnn2Cc2ccc(F)cc2)CC1 (stereo not drawn)
6	.	CCc1ccc(S(=O)(=O)NCCc2csc(C)n2)cc1
.	-1.7	COc1ccc(-c2ocnc2C(=O)NCc2nn(-c3ccccc3)nc2C)cc1
1	.	CCn1cc(C(=O)N(Cc2ccc(F)cc2)C2CCCCC2)c(=O)c2ccc(C)nc21
-6	.	CC(C)NC(=O)Nc1ccccc1C(=O)N=c1sc2ccccc2n1C
10	4.2	Cc1ccc(Cn2c(CN3CC(C)OC(C)C3)nc3c2c(=O)[nH]c(=O)n3C)cc1 (stereo not drawn)
2	-1.4	COc1ccc(Cc2nnc3n2N=C(N)CS3)cc1
-4	0.6	Nc1scc[n+]1Cc1cccc2cccnc12
.	1.9	COC(=O)c1sc(SC)c(C#N)c1-c1cccs1
16	.	C/C(=N\OCC(=O)N1CCN(c2ccccc2)CC1)c1ccccc1
12	.	O=C1c2ccccc2C(=O)N1CN(C(=O)c1ccccc1)c1ccc(O)cc1
6	.	COc1ccc(I)cc1S(=O)(=O)N1CCOCC1
.	-0.7	c1ccc(SCc2cccc(CSc3ccccn3)n2)nc1
-26	.	OC1(c2ccccc2F)CCNCC1
-18	-2.0	Cc1ccccc1OCC(=O)OCC(=O)Nc1cccc(Br)c1
7	1.6	CCOc1ccc(Nc2nc(N3CCCCC3)nc(N3CCCCC3)n2)cc1
6	-1.6	CCc1cc2c(=O)n(-c3ccccc3)c(SCC(=O)c3ccccc3)nc2s1
15	0.0	O=C(CSCc1ccc(Cl)cc1)NC1CC1
-24	.	O=C(NCc1cccs1)C12CC3CC(CC(C3)C1)C2
.	-3.8	COc1ccc(S(=O)(=O)CCc2nnc(NC(=O)c3ccc(C(C)(C)C)cc3)s2)cc1
.	4.7	CCCc1c(C(=O)NC2Cc3ccccc3C2)cnn1-c1ccccc1
10	.	CCC(c1nnc(SCC(=O)NCC(F)(F)F)n1Cc1ccccc1)N(C)C (stereo not drawn)
11	1.1	CC1CCCN(c2ncccc2C(=O)NCC2CCCO2)C1 (stereo not drawn)
7	.	Cc1cccc(S(=O)(=O)N2CCN(S(=O)(=O)c3ccc(C)c(C)c3)CC2)c1
24	.	COc1ccc2c(C=Nc3ccccc3F)c(O)n(C)c(=O)c2c1
-1	0.6	Cc1nc2onc(OCC(=O)OCc3ccccc3)c2c(C)c1C
.	0.6	COC(=O)c1c(C)csc1NC(=O)CSCc1c(F)cccc1Cl
-13	.	Cc1ccc(-c2nn3c(Cn4cnc5ccccc54)nnc3s2)cc1C
6	-2.5	CCCc1cc2c(=O)c(-c3nc4ccccc4n3C)coc2cc1O
10	.	CCC(=O)c1ccc(OCC(=O)NC2CCCCC2C)cc1 (stereo not drawn)

Part of the list above, with bars between the fields:
SMILES | S aureus helic | MgrA DNA FP
Cc1nc2onc(OCC(=O)OCc3ccccc3)c2c(C)c1C | -1 | 0.6
COC(=O)c1c(C)csc1NC(=O)CSCc1c(F)cccc1Cl | . | 0.6
Cc1ccc(-c2nn3c(Cn4cnc5ccccc54)nnc3s2)cc1C | -13 | .
CCCc1cc2c(=O)c(-c3nc4ccccc4n3C)coc2cc1O | 6 | -2.5

Later entries.
S aureus helic	MgrA DNA FP	SMILES
1	.	COC(=O)C1Sc2[nH]c(=O)sc2C(c2ccc(Cl)cc2)C1C(=O)OC (stereo not drawn)
22	.	Cc1cccc(NC2=CC(=O)CC(C)(C)C2)c1
6	.	Oc1ccc2ccccc2c1C=NC1CC1
.	4.6	CCOC(=O)c1cc(-c2ccnn2C(=O)c2ccccc2)on1
-19	-0.6	CC(=Nc1ccc(S(=O)(=O)N2CCCC2)cc1)c1ccccc1
15	-0.7	C=CCn1c(NC(=O)CC)nc2ccccc21
2	.	Cc1ccc(Cn2c(SCC#N)nc3ccccc3c2=O)cc1
6	.	CCc1nc2c(cnn2-c2ccccc2)c(=O)[nH]1
9	.	CC(C)COC(=O)N1CCCC1C(=O)Nc1ccccc1 (stereo not drawn)
14	.	CN(CC1COc2ccccc2O1)S(=O)(=O)c1ccc(-c2cc(C(F)(F)F)no2)s1 (stereo not drawn)
24	.	CC(C)(C)c1ccc(S(=O)(=O)N2CCN(Cc3cc4c(cc3O)OCO4)CC2)cc1
20	1.1	COc1ccc2cc(C(C)C(=O)OCC(=O)N3CCCc4ccccc43)ccc2c1 (stereo not drawn)
1	0.6	CC1CCCC(C)N1C(=O)COc1cccc(Br)c1 (stereo not drawn)
5	0.0	CC(SC1=NN2CCCC(=O)N=C2S1)c1ccccc1 (stereo not drawn)
.	-0.3	C=CCn1cnc2c(sc3nc(C)cc(C)c32)c1=O
.	0.3	COC(=O)c1cnc(SCc2ccc(C(C)(C)C)cc2)nc1N
.	3.1&5.3	C[n+]1c(-c2ccccc2)csc1NC1CCCCC1
2	-2.7	O=C(O)CCc1nc2cc(C(F)(F)F)ccc2n(Cc2ccccc2)c1=O
.	-3.2	O=C1C2C3C=CC(CC3)C2C(=O)N1c1ccc(Cl)c(C(F)(F)F)c1 (stereo not drawn)
10	.	O=c1[nH]c(=S)[nH]nc1-c1ccc(O)cc1
8	-1.8	O=C(N/N=C/c1ccccc1Cl)C1CC1
5	2.3	CC1CCC(NC(=O)C(NC(=O)C2CCC(C)CC2)C(C)C)CC1 (stereo not drawn)
6	3.4	COc1ccc(-c2cc3nccc(C4CCN(C(=O)OC(C)(C)C)CC4)n3n2)cc1
-3	.	COc1cccc(-c2noc(CSc3nc4sc5c(c4c(=O)n3C(C)C)CCC5)n2)c1
15	1.6	CC(C)OC(=O)COc1cc2oc(=O)c3c(c2cc1Cl)CCC3
23	-0.3	Cc1ccc(S(=O)(=O)N(C)CC(=O)N2CCCc3ccccc32)cc1
-18	.	CN(C)c1ccc(NC(=O)CC2Sc3ccc(C(F)(F)F)cc3NC2=O)cc1 (stereo not drawn)
7	.	CCOC(=O)c1cc(Cn2c(=O)c(OCC)nc3cnccc32)on1
.	-2.2	O=C1NC2(CCN(S(=O)(=O)c3cccs3)CC2)Oc2ccccc21
.	1.5	CC1=NN(c2cccc(S(N)(=O)=O)c2)C(=O)C1
13	.	O=C(NCCc1nc2ccccc2n1CCCOc1ccc(Cl)cc1)c1ccco1
3	.	O=C(Nc1nc2nccc(-c3ccccc3)n2n1)c1ccccc1
6	-0.2	COc1ccc2c(c1)Cc1sc(NC(=O)c3ccc(OC)c(Br)c3)nc1-2
5	-0.2	O=C1C(Cc2ccccc2)S/C(=N/N=C/c2ccco2)N1c1ccccc1 (stereo not drawn)
-32	.	O=C(O)CNS(=O)(=O)c1ccc(Cl)cc1
-7	.	CN1N=C(C(=O)Nc2ccc3c(c2)CCC3)CCC1=O
-8	.	CCCCn1nnnc1CSc1nc2sc3c(c2c(=O)n1-c1cccc(OC)c1)CCC3
-12	.	O=C(O)c1cccnc1SCC(=O)N1CCCc2ccccc21
17	3.3	Cn1nnnc1SC(c1ccccc1)c1ccccc1
-6	.	CCCOC(=O)C(C)N1C(=O)/C(=C/c2ccc(OC)cc2)SC1=S (stereo not drawn)

Part of the list above, reformatted.
mol,S aureus helic,MgrA DNA FP
O=C1C(Cc2ccccc2)S/C(=N/N=C/c2ccco2)N1c1ccccc1 (stereo not drawn),5,-0.2
O=C(O)CNS(=O)(=O)c1ccc(Cl)cc1,-32,.
CN1N=C(C(=O)Nc2ccc3c(c2)CCC3)CCC1=O,-7,.
CCCCn1nnnc1CSc1nc2sc3c(c2c(=O)n1-c1cccc(OC)c1)CCC3,-8,.
O=C(O)c1cccnc1SCC(=O)N1CCCc2ccccc21,-12,.
Cn1nnnc1SC(c1ccccc1)c1ccccc1,17,3.3

(further entries)
S aureus helic	MgrA DNA FP	SMILES
18	.	CC(Oc1ccc2c(C(F)(F)F)cc(=O)oc2c1)C(=O)NN (stereo not drawn)
4	0.6	CCOC(=O)C1CSC(CC(=O)Nc2ccccc2)C(=O)N1 (stereo not drawn)
.	0.2	O=c1c2c(nc3cc(-c4ccco4)[nH]n13)CSC2
0	-1.1	Brc1ccc(/C=N/c2nc3ccccc3n2CCN2CCCCC2)cc1
-20	.	Cc1ccnc2nc(C(=O)NN3C(=O)c4ccccc4C3=O)nn12
-15	.	COc1ccc(CCNC(=O)NC(C)(C)C)cc1OC
20	.	O=c1[nH]c(CSc2nc3ccccc3o2)nc2c1cnn2-c1ccccc1
-15	.	Cc1nc(C#N)c(N/N=C/C=C/c2ccccc2)o1
-8	.	Cn1c(=O)c2cc(S(=O)(=O)NCCC(=O)NC3CCCCCCC3)ccc2n(C)c1=O
.	2.7	CCOC(=O)C(c1ccccc1)C(Nc1ccc(F)cc1)c1ccccn1 (stereo not drawn)
-15	14	CN1C(=O)c2ccc(N3CCCC3)cc2C1=O
16	.	CCOC(=O)CN1CC23C=CC(O2)C(C(=O)N2CCCC2)C3C1=O (stereo not drawn)
.	-1.6	COc1cccc(C2C3=C(CC(C)(C)CC3=O)Nc3ccccc3N2C(=O)C(F)(F)F)c1OC (stereo not drawn)
.	-2.2	CC(C)(C)C(=O)NCNc1cc(C(F)(F)F)ccc1Cl
-7	.	Cc1ccc(CNC(=O)CCc2nc(-c3ccc(C)cc3)no2)cc1
-5	.	NC(=O)c1cc(-c2ccc3c(c2)OCO3)no1
.	1.3	Cc1cc(-c2c(C(=O)N3CCCCC3)c(C)nn2-c2cccc(C(F)(F)F)c2)no1
-6	.	O=C(O)CCCn1c(=O)c2cccn2c2ccc(F)cc21
-13	.	Cc1nnc(N2CCCC(C(=O)NC(C)C)C2)c2nn(-c3ccccc3)c(C)c12 (stereo not drawn)
-43	1.7	COc1cc(/C=c2/sc3nc4ccccc4n3c2=O)cc(OC)c1O

Among those listed so far, 3 have a cyano group.
S aureus helic	MgrA DNA FP	SMILES
.	1.9	COC(=O)c1sc(SC)c(C#N)c1-c1cccs1
2	.	Cc1ccc(Cn2c(SCC#N)nc3ccccc3c2=O)cc1
-15	.	Cc1nc(C#N)c(N/N=C/C=C/c2ccccc2)o1

(next part)
S aureus helic	MgrA DNA FP	SMILES
-11	.	CCC(CC)C(=O)N(c1ccc(OC)cc1OC)C1C=CS(=O)(=O)C1 (stereo not drawn)
2	0.6	O=C(NCc1cccnc1)c1ccc(COc2cccc3ccccc23)o1
.	-1.7	O=C(O)c1ccccc1C(=O)Nc1ccc(F)cc1
.	1.4	Cc1ccc2c(c1)CCCN2CC(=O)Nc1ccccc1
4	-6.2	COc1cc2c(cc1OC)CC1(C2)c2ccccc2CN1C
-16	1.9	CCN1C(=O)/C(=C/C=C2/Sc3cc(NC(C)=O)ccc3N2CC)N(c2ccccc2)C1=S
.	-2.8	NC(=O)c1ccc(NC(=O)c2cccc3c2OCCCO3)cc1
7	.	CSc1nnc(C)c(=O)n1N
11	-1.8	CCNC(=O)C(C)Sc1ccccc1 (stereo not drawn)
-6	1.1	CCCS(=O)(=O)N1CCN(C(=O)COc2cccc(C)c2)CC1
-24	.	CC1=CC2=NC(=N)/C(=C/C3CC=CCC3)C(=O)N2C=C1 (stereo not drawn)
.	-3.0	O=C(O/N=C/c1ccc2c(c1)OCO2)c1ccccc1
7	2.2	Cc1cc(I)ccc1NC(=O)c1ccc(C(C)(C)C)cc1
9	-3.3	CC(C)(C)n1nnnc1C(c1cccc(C(F)(F)F)c1)N1CCC(O)CC1 (stereo not drawn)
16	.	CCOc1ccc(-n2cc(-c3ccccc3)c3c(N4CCN(CC)CC4)ncnc32)cc1
6	1.5	CC(OC(=O)C1CC1)C(=O)Nc1cc(C(F)(F)F)ccc1Cl (stereo not drawn)
-1	.	COc1ccccc1NC(=O)C1C(=O)NC23CCCCC2C1c1ccccc1O3 (stereo not drawn)
26	.	CCCNC(=O)c1ccc2nc(N3CCOCC3)sc2c1
-6	-0.7	CC(Cc1ccccc1)NC(=O)c1ccccc1 (stereo not drawn)
13	.	O=C1CN(c2ccccc2)C(=O)N1c1ccccc1
-23	.	CCCCc1ccc(NC(=O)NCCN2CCNC2=O)cc1
34	.	N/C(=N\N=C\c1ccco1)c1nonc1N
.	-2.4	O=C(CSc1nnc(-c2cnccn2)s1)c1cccc(C(F)(F)F)c1
-4	-2.4	Cc1cc(C)n(CC(O)CNCc2ccco2)n1 (stereo not drawn)
-15	0.5	N#CCn1nnc(-c2ccc3c(c2)OCO3)n1
.	-3.8	OCCSc1ccc2nnc(-c3ccccc3)n2n1
8	.	Cc1ccc2c(COC(=O)Cc3n[nH]c(=O)c4ccccc34)cc(=O)oc2c1
9	1.6	CCOC1(C)C(=O)c2ccccc2N1Nc1ccccc1C(=O)CC (stereo not drawn)
-12	.	O=C(CSc1nnnn1-c1ccc(O)cc1)c1ccc2c(c1)OCCO2
.	1.4	O=c1[nH]c(SCc2cccc(F)c2)nc2ccccc12
3	.	CCOC(=O)c1cc(-c2ccccc2)n(CCC(=O)N2CCn3c2nc2ccccc23)c1C
21	.	Cn1nc(C(C)(C)C)cc1C(=O)NNc1c(Cl)cncc1Cl
-9	.	CC(Sc1nc2ccccc2o1)C(=O)O (stereo not drawn)
7	.	Cc1cccc(NS(=O)(=O)c2c(C)[nH]c(=O)[nH]c2=O)c1C
11	0.5	Cc1ccc2[nH]c3c(=O)n(N)c(C)nc3c2c1
-20	.	N#CC(C#N)=CNc1ccc(Oc2cccnc2)nc1
22	.	Cc1ccc(Cn2ccsc2=NC(=O)COC(=O)C2=COCCO2)cc1
-18	-1.8	O=C(O)/C=C/c1ccc(F)cc1
9	2.7	O=C1C2C(C(=O)N1/N=C/c1cccc(I)c1)C1C=CC2C12CC2 (stereo not drawn)
9	.	COC(CNC(=O)c1cccc(NS(=O)(=O)c2ccc(Cl)cc2)c1)OC
.	2.4	CS/C(N)=N/N=C/c1c(Cl)cccc1Cl
11	.	CC1Cc2ccccc2N1C(=O)CSc1nncn1-c1ccccc1 (stereo not drawn)

Bioassay records (PubChem)
